2A firefly: FMDV 2A StopGo reporter, firefly signal; actives 0.23% (n = 120,000); AID 1745856; HEK cells with a luciferase reporter of 2A StopGo recoding; Potency, µM (doses to about 57.5 µM), for inactives: at the highest dose signal change, negative = less light; active = well fitted falling curve with a large enough effect; inconclusive = small, poorly fitted or top-dose-only effect; inactive = no such curve, though single readings can be large or run the other way; further: nearly all actives have a fitted effect of over 60% in size; overnight with compound
2A Renilla: lowers the Renilla signal of an FMDV 2A StopGo reporter; HEK cells with a luciferase reporter of 2A StopGo recoding; Potency, µM (doses to about 57.5 µM), for inactives: at the highest dose signal change, negative = less light; actives 0.32% (n = 120,000); active means well fitted falling curve with a large enough effect; inconclusive means small, poorly fitted or top-dose-only effect; inactive means no such curve, though single readings can be large or run the other way; further: nearly all actives have a fitted effect of over 55% in size; overnight with compound
* = called active by the depositor; u = inconclusive; [ ] = another dose, or the depositor's remark. On the % scale 0 is the no-effect control and ±100 the full control effect; potency means the concentration at half of the fitted maximal effect.

SMILES	2A firefly	2A Renilla
CC(Cc1ccco1)NC(=O)C1CCCO1 (stereo not given)	1.7%	6.7%
COC(=O)c1cc(NC(=O)c2oc(=O)c3ccccc3c2-c2ccccc2)cc(C(=O)OC)c1	-11.0%	-4.8%
CNC(=O)NC(=O)CN(CC(C)O)c1ccccc1 (stereo not given)	-3.9%	4.4%
O=C1CC(c2ccccc2C(F)(F)F)c2c(c3ccccc3[nH]c2=O)O1 (stereo not given)	-1.3%	-12.2%
CC(=O)c1ccc(NC(=O)CSc2nnc3c(n2)[nH]c2ccccc23)cc1	9.5%	-17.8%
CCOC(=O)c1c(NC(=O)c2cc3nc(-c4ccc(Br)cc4)cc(C(F)(F)F)n3n2)sc(C(C)=O)c1C	-6.2%	-9.2%
Cc1nnc(NC(=O)c2cc(-c3ccccc3)nc3ccccc23)s1	19.5%	21.1%
CCCCN(C)CCNC(=O)c1nn(-c2ccc(OC)c(Cl)c2)c(=O)c2c1c1ccccc1n2C	-22.6%	-12.0%
CCn1c(SCCOC)nnc1C1CC1	39.4%[activator]	24.4%
CC(Nc1ccc([N+](=O)[O-])cn1)c1ccc(Cl)cc1Cl (stereo not given)	20.1%	55.9%[activator]
Cc1cnc(C(=O)Oc2ccc(Cl)cc2Cl)cn1	18.2%	19.4%
Cc1ccc(NC(=O)Cn2nc(-c3cccs3)oc2=O)cc1C	58.1%[activator]	9.9%
O=C(O)c1ccc(S(=O)(=O)N(Cl)Cl)cc1	11.4%[11.5 µM]	5.9%
Clc1ccc(-c2nnc(SCc3nc4ccccc4o3)o2)cc1	81.8%[activator]	7.7%
O=C(Nc1cn[nH]c1)C1CCCN(c2cnccn2)C1 (stereo not given)	2.8%	1.4%
Cc1cccc(Cn2c(SCCCO)nc3c2c(=O)n(C)c(=O)n3C)c1	-5.6%	-8.0%
Cn1c(C=O)cc2ccccc21	-0.1%	0.6%
CCCOc1ccc(-c2nonc2NC(=O)COc2ccc(C)cc2)cc1OCCC	-8.0%	-8.0%
CCS(=O)(=O)N1CCc2cc(C(=O)Nc3cc(OC)c(Cl)cc3OC)ccc21	27.4%	11.0%
CCn1nc(C(=O)Nc2cc(Cl)ccc2OC)c2ccccc2c1=O	7.8%	0.3%
Cc1ccc(NC(=O)NCc2nc(-c3ccccc3)oc2C)c(Cl)c1	14.7%	12.5%
CCCCOc1ccc(CNC(=O)c2cnc3sc(N4CCCC4)nn3c2=O)cc1	6.5%	-18.9%
Cc1cccc(NC(=O)CCNS(=O)(=O)c2ccc3c(c2)CCN3C(=O)C2CC2)c1	-16.4%	5.1%
COc1cc(Cl)c(C)cc1NC(=O)Cn1nc2ccc(SC3CCCCC3)nn2c1=O	2.5%	-0.3%
CCn1cc2nc(SCc3ccccc3F)n(Cc3ccc(C)cc3)c(=O)c2n1	-8.4%	-10.2%
(further entries)
SMILES	2A firefly	2A Renilla
Clc1ccc(/C=N/Nc2ccc(Cl)c(Cl)c2)cc1Cl	92.8%[activator]	10.2%
CCc1nn2c(=O)cc(CNc3ccc4c(c3)OCCCO4)nc2s1	4.47µM*	2.7%
N#Cc1ccccc1CN1CCCc2ccccc21	68.5%[activator]	-13.3%[1.06 µM]
O=C(Nc1ccc2oc(-c3ccncc3)nc2c1)c1ccc2c(c1)OCO2	10.2%	-6.6%
CCCCN(c1ccccc1)S(=O)(=O)c1ccc2c(c1)CC(C)N2C(=O)C1CC1 (stereo not given)	-10.0%	173.4%[activator]
CCCc1nnc(NC(=O)C2(c3ccc(Cl)cc3)CCC2)s1	0.2%	-6.4%
O=C(c1ccc2ccccc2c1)N(Cc1ccccc1)C1CC1	0.0%	54.8%[activator]
Cc1ccc(C2=NN(C(=O)Cn3nnc(-c4ccccc4C)n3)C(c3ccco3)C2)cc1 (stereo not given)	19.1%	10.0%
CN(C)c1ccc(CN(Cc2ccco2)C(=O)c2ccc(C(C)(C)C)cc2)cc1	52.1%[activator]	124.1%[activator]
CCOc1cccc2cc(-c3cn4c(n3)sc3ccccc34)c(=O)oc12	-8.8%	-9.1%
CCc1c(C)sc(NC(=O)/C=C/c2ccc(F)cc2)c1C#N	3.3%	-3.3%
CCOc1ccc(NC(=O)Nc2ccc3snnc3c2)cc1	89.9%[activator]	0.5%
CC(C)CCNc1nc(C(=O)OCC(=O)NC(=O)NC(C)C)cs1	-5.9%	-10.5%
O=C(Nc1ccc2c(c1)OCCO2)c1cccn(Cc2cccc([N+](=O)[O-])c2)c1=O	56.3%[activator]	-15.8%
COc1cc(Cl)c(C)cc1NC(=O)CCc1c(C)nc2cc(-c3cccc(F)c3)nn2c1C	21.5%	-6.9%
COc1cccc(CN(C)CC(=O)N2c3ccccc3NC(=O)CC2C)c1OC (stereo not given)	-10.2%	-10.9%
Cc1oc(-c2ccc(Cl)cc2)cc1C(=O)Nc1nccs1	108.3%[activator]	6.7%
COc1ccc2c(c1)cc(C(=O)Nc1ccccc1OC)n2C	0.0%	33.2%[activator]
CSc1ccc(C2CC(=O)Nc3c2cnn3-c2nc3ccccc3s2)cc1 (stereo not given)	75.0%[activator]	10.5%
Cc1c(NCc2nc(-c3ccco3)no2)cccc1-n1cnnn1	19.3%	0.0%
CCOC(=O)c1cccc(NC(=O)c2ccc3snnc3c2)c1	108.9%[activator]	-11.9%
O=C(Cn1c(=O)nc(-c2ccccc2)c2ccccc21)NCCc1ccc(Cl)cc1	23.9%	9.4%
CC(C)c1ccc(NC(=O)CSc2nc3c(=O)n(C)c(=O)n(C)c3n2C)cc1	-5.3%	-6.5%
Cc1ccc(-n2ncc3c(N4CCN(C)CC4)ncnc32)cc1Cl	55.9%[activator]	-3.9%
Cc1ccccc1OCc1nnc(SCC(=O)c2ccc(Cl)cc2)n1C	15.4%	11.0%
(more compounds)
SMILES	2A firefly	2A Renilla
CCOC(=O)c1c(S(=O)(=O)NCC(=O)N2CCCCC2)c(C)n(C)c1C	6.6%	152.9%[activator]
COc1ccccc1NC(=O)Nc1c(NC2CCCC2)c2ccccc2oc1=O	-6.6%	12.4%
CC(C)(C)c1ccc2[nH]c(C(C)(C)C)c(C=O)c2c1	109.4%[activator]	24.1%
O=C(NCCc1ccccc1)Nc1ccc2nc(NS(=O)(=O)c3ccccc3)sc2c1	16.6%	32.0%[activator]
CC(C)CCNC(=O)c1ccc(CSCc2ccccc2Cl)o1	11.6%	76.1%[activator]
Cc1ccc(-n2nc(CO)c(C(=O)NCC(c3ccccc3)c3ccccc3)n2)cc1	-22.5%	-11.7%
COc1ccccc1C(=O)Oc1ccc2c(=O)c(-c3ccccc3OC)coc2c1	0.0%	8.4%
O=C(Nc1sc2c(c1C(=O)NCC1CCCO1)CCC2)c1cc(=O)c2cc(Cl)ccc2o1 (stereo not given)	-14.1%	-6.4%
Cc1ccccc1C(C)NC(=O)CN1CCN(c2ccc([N+](=O)[O-])c3cnccc23)CC1 (stereo not given)	-26.7%	-22.2%
Cc1ccc(C)c(COC(=O)c2ccc3c(c2)NC(=O)CS3)c1	9.2%	-9.2%[1.06 µM]
O=C(/C=C/Nc1ccc(Cl)c(C(F)(F)F)c1)c1ccc(Br)cc1	-18.6%	13.7%
COc1ccccc1N1CCN(C(=O)c2cc(-c3ccccc3O)on2)CC1	20.4%	8.8%
COc1ccc(C)cc1NC(C)C(=O)N(C)Cc1cccc(F)c1 (stereo not given)	10.5%	24.6%
NNC(=O)C(O)(c1ccccc1)c1ccccc1	-1.5%	0.6%
COc1cc(/C=N/O)c(Br)c(Br)c1OCc1ccccc1Cl	22.7%	22.6%
COc1ccc(CNC(=O)c2csc(NC3CC3)n2)cc1	139.1%[activator]	11.3%
CSc1ccc(C2c3[nH]c4ccccc4c3CCN2C(=O)CCC2CCCC2)cc1 (stereo not given)	u	u
CCn1c(SCC(=O)Nc2ccccc2C(=O)NC2CC2)nnc1-c1ccoc1C	5.2%	13.6%
CCOC(=O)c1ccc(NC(=O)Cn2cc(C(=O)C3CC3)c3ccccc32)cc1	-12.9%	-0.6%
COc1cc(C)cc2oc(=O)c(CC(=O)Nc3ccc(NC(C)=O)cc3)c(C)c12	4.7%	-0.6%
CCC1c2ccsc2CCN1C(=O)CCNC(=O)c1ccc(F)cc1F (stereo not given)	-9.4%	-1.8%
Cc1ccc(C)c(S(=O)(=O)c2nnn3c2nc(NC2CCCCC2)c2sccc23)c1	-10.6%	11.7%
Cc1ccc(N(CC(C)C)S(=O)(=O)c2nnc(NC(=O)c3cccs3)s2)cc1	-12.4%	22.1%
O=C1c2ccccc2S(=O)(=O)N1Cc1nc(-c2cc(Cl)ccc2Cl)cs1	0.0%	-3.2%
Cc1cc(C)c(NC(=O)Cn2c(=O)n(CCc3ccccc3)c(=O)c3ccccc32)c(C)c1	1.3%	-6.9%

Structures from the list above with a tert-butyl group (2):
SMILES	2A firefly	2A Renilla
CN(C)c1ccc(CN(Cc2ccco2)C(=O)c2ccc(C(C)(C)C)cc2)cc1	52.1%[activator]	124.1%[activator]
CC(C)(C)c1ccc2[nH]c(C(C)(C)C)c(C=O)c2c1	109.4%[activator]	24.1%

(cont.)
SMILES	2A firefly	2A Renilla
N#Cc1nc(C2CC2)oc1N1CCN(Cc2ccc(Cl)cc2)CC1	-17.4%	-19.5%
N#CCCn1cc(C(=O)Nc2ccc(F)cc2)c(-c2cccs2)n1	7.4%	103.2%[activator]
Cc1ccc(-c2c3c(=O)n(C)c(=O)n(C)c3cn2-c2cc(C)ccc2O)cc1	-18.7%	26.2%
CC1Sc2c(C(C)(C)C)cc(C(C)(C)C)c(O)c2OC1=O (stereo not given)	-6.2%	-15.4%
CCc1c(C)sc(NC(=O)c2cccc(F)c2)c1C#N	45.2%[activator]	10.1%
COc1ccc(NC(=O)CSc2oc(-c3cccs3)nc2S(=O)(=O)c2ccc(C)cc2)c(OC)c1	-11.8%	51.1%[activator]
CC(C)n1nc(C(=O)NCCCC(=O)O)c2ccccc2c1=O	-1.5%	-2.5%
O=C(O)CCCOc1ccc(C(=O)/C=C/c2ccc(C(=O)O)cc2)cc1	-7.3%	-3.9%
Cc1oc(-c2nc(C#N)c(NCc3cccnc3)o2)cc1S(=O)(=O)N1CCCCCC1	u	46.7%[activator]
CC(NC(=O)CCc1nc2sc3c(c2c(=O)[nH]1)CCC3)c1cccc(C(F)(F)F)c1 (stereo not given)	-14.6%	-9.4%
COc1cc(SC)ccc1C(=O)OCC(=O)NCc1cccs1	31.5%[activator]	-16.1%
COC(=O)c1cc2oc3ccccc3c2n1CC(=O)Nc1cccc(SC)c1	92.6%[activator]	11.0%
CCCn1cc(SCC(=O)Nc2ccc(C)cc2)c2ccccc21	30.6%	18.7%
COC(=O)c1ccc(NC(=O)CSc2nnc3c4ccccc4n(C(C)C)c3n2)cc1	-6.4%	-5.8%
Cc1nn(Cc2ccc(F)cc2)c(C)c1NC(=O)Nc1ccc2c(c1)OCO2	10.0%	-10.4%
CC(Nc1ccc([N+](=O)[O-])c2nonc12)c1ccc(Cl)cc1 (stereo not given)	-30.7%	u
COc1ccc(N(CC(=O)NCc2ccc(Cl)cc2)S(=O)(=O)c2c(C)noc2C)cc1	-13.0%	10.6%
c1ccc(-c2nc(C34CC5CC(CC(C5)C3)C4)cs2)cc1	-2.8%	-0.8%
O=c1c2nccnc2nc(SCc2ccccc2F)n1Cc1ccc2c(c1)OCO2	-3.5%	1.3%
COc1cccc2cc(-c3cc(=O)oc4c(C)c(C)ccc34)oc12	22.9%	0.5%
N#CCC(=O)Nc1ccc(C(=O)OCc2ccc(Cl)cc2)cc1	17.9%	1.2%
O=C(Nc1ccc(F)cc1F)Nc1cc(C(=O)NCc2cccc(F)c2)ccc1N1CCOCC1	27.8%	150.9%[activator]
Cc1cc(C)c2oc(-c3cccc(NC(=O)c4ccco4)c3)nc2c1	22.9%	-6.9%
Cc1ccc2nc(C)c(C(=O)O)cc2c1	0.0%	9.3%
Cc1ccc(NC(=O)C(Cc2ccccc2)NS(=O)(=O)c2ccc3c(c2)oc(=O)n3C)cc1F (stereo not given)	u	5.9%
CCCCCOC(=O)CSc1nc2c(c(=O)[nH]c(=O)n2C)n1CCC	-6.0%	-8.3%
CC(=O)c1cccc(NC(=O)Cn2c(SCC(=O)Nc3ccc(F)cc3)nc3ccccc32)c1	12.2%	12.4%
Cc1ccc(C2Nc3cc(C)c(C)cc3-n3c(-c4ccccc4)c4c(=O)n(C)c(=O)n(C)c4c32)o1 (stereo not given)	24.4%	u
OCC(O)CS (stereo not given)	-6.5%[11.5 µM]	-3.5%
CNC(=O)NC(O)C(Cl)(Cl)Cl (stereo not given)	-27.4%	-21.6%

A different layout for some results above.
The line under a structure holds: 2A firefly	2A Renilla
COc1cc(SC)ccc1C(=O)OCC(=O)NCc1cccs1
→ 31.5%[activator]	-16.1%
COC(=O)c1cc2oc3ccccc3c2n1CC(=O)Nc1cccc(SC)c1
→ 92.6%[activator]	11.0%
CCCn1cc(SCC(=O)Nc2ccc(C)cc2)c2ccccc21
→ 30.6%	18.7%
COC(=O)c1ccc(NC(=O)CSc2nnc3c4ccccc4n(C(C)C)c3n2)cc1
→ -6.4%	-5.8%
Cc1nn(Cc2ccc(F)cc2)c(C)c1NC(=O)Nc1ccc2c(c1)OCO2
→ 10.0%	-10.4%
CC(Nc1ccc([N+](=O)[O-])c2nonc12)c1ccc(Cl)cc1 (stereo not given)
→ -30.7%	u
COc1ccc(N(CC(=O)NCc2ccc(Cl)cc2)S(=O)(=O)c2c(C)noc2C)cc1
→ -13.0%	10.6%

Compound activity (PubChem BioAssay)
